From PubChem
Sfp inh – qHTS Assay for Inhibitors of Bacillus subtilis Sfp phosphopantetheinyl transferase (PPTase) | 4'-phosphopantetheinyl transferase ffp (Bacillus subtilis), Q9F4F7 | 310,000 tested, 3.5% active | Biochemical Sfp PPTase activity, qHTS | AID 1490, 2009 | Potency, µM, for inactives: max response, negative = inhibition, actives largely listed as inhibitors; active = well fitted inhibition curve with a large enough effect; inconclusive = small, poorly fitted or top-dose-only effect, or another doubt; inactive = no such curve, though single readings can be large or run the other way;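 also: the enzyme is Sfp with the accession as filed and its product quenches rhodamine fluorescence; potency is read from the fitted curve at half-maximal effect; 0% = enzyme reaction without inhibitor and -100% = no enzyme wells; top concentration of the series not given in the record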
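After 15 min at room temperature with compound, 15 nM Sfp received 5 uM rhodamine-CoA plus 12.5 uM BHQ-2-ybbR (50 mM Hepes pH 7.6, 10 mM MgCl2). Rate came from the fluorescence difference over 30 min, ex 525/em 598 nm.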
TRPV1 PAM – HTS Assay for Compounds that Act as Potentiators of the Vanilloid Receptor 1; Transient receptor potential cation channel subfamily V member 1 (Homo sapiens), Q8NER1; potentiation, % at 8.33 µM; TRPV1-expressing cells, Fluo-8 calcium influx, capsaicin EC20 potentiation; host cell line not named in the record; control for the full effect not named in the record; AID 540277, 2011; 320,000 tested, 0.02% active; active means potentiation above 80%; inconclusive means 30% to 80%; inactive means below 30%; also: 0% is about no effect
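TRPV1-expressing cells were cultured overnight at 35.5C and loaded with Fluo-8 calcium dye for 40 to 90 min at room temperature. After a 10 s baseline, compound was added and calcium influx was read kinetically for 3 min (ex 480/em 520 nm).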
gsp ag – qHTS for Agonist of gsp, the Etiologic Mutation Responsible for Fibrous Dysplasia/McCune-Albright Syndrome: qHTS | gsp mutant cells, cAMP HTRF, 30 min; control for the full effect not named in the record | Potency, µM (highest dose often 76.9 µM), inactives show at the highest dose activation (cAMP increase), usual class: activators | 340,000 tested, 0.13% active | AID 624287, 2012; active = well fitted activation curve with a large enough effect; inconclusive = small, poorly fitted or top-dose-only effect, or another doubt; inactive = no such curve, though single readings can be large or run the other way; cell line not stated here;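 also: phosphodiesterase inhibitor Ro 20-1724 added with compounds to block cAMP breakdown; potency is read from the fitted curve at half-maximal effect; nearly all actives have a fitted effect of over 60% in size; about a fifth of the inactives were tested at one dose only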
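Cells stably selected in G418 were plated at 2000/well, grown 16-24 hr, then given compounds in DMSO with the PDE inhibitor […] (300 uM solution added) for 30 min at 37C; cAMP was read by HTRF.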
ClpP mod – qHTS Assay for Activators of ClpP. ATP-dependent Clp protease proteolytic subunit (Bacillus subtilis (strain 168)), P80244. purified B. subtilis ClpP, FRET peptide cleavage, 20 min. Potency, µM (top dose mostly 57.5 µM), for the others: at the top dose activity change, negative = active. 340,000 tested, 1.9% active. AID 651965, 2013; active = well fitted falling curve with a large enough effect; inconclusive = small, poorly fitted or top-dose-only effect; inactive = no such curve, though single readings can be large or run the other way; also: potency is read from the fitted curve at half-maximal effect; the source files actives as falling curves though it sought activators and does not explain the sign; nearly all actives have a fitted effect of over 65% in size; many hits overshoot -100%
Target sequence (P80244 whole entry, looked up): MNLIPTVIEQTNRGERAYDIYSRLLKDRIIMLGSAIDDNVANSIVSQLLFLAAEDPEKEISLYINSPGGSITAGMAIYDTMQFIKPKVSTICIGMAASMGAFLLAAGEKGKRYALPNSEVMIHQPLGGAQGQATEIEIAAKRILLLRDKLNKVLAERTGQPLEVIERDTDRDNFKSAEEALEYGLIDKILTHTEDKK
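FRET quenching reversal measured ClpP activation: 10 microg/mL B. subtilis ClpP at pH 8 with the FRET-FV decapeptide, read at 430 nm after 320 nm excitation. The 20-min minus 0-min signal was scaled between DMSO/no-enzyme wells and ADEP (5.8 microM final).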
Menin MLL FP FL – qHTS Assay for Inhibitors Targeting the Menin-MLL Interaction in MLL Related Leukemias: Competition With Fluorescein Labeled MLL-derived Peptide. Fluorescence polarization, fluorescein-MLL peptide displacement from menin. FP activity change, % at 61.4 µM. 290,000 tested, under 10 active. AID 1766, 2009; inconclusive = falling polarisation curve, or a change in total fluorescence; inactive = total fluorescence flat and polarisation flat or rising; no compound was filed as active; the % refers to the polarisation; negative = inhibition;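 also: % of control where 0% means no effect; inhibitors lower the polarisation; unlabelled MLL peptide was the positive control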
D2 potentiator – Beta-Arrestin HTS for Positive Allosteric Modulators of the Human D2 Dopamine Receptor: Potentiators | AID 624464, 2012 | DiscoveRx D2 beta-arrestin cells, luminescence, 90 min; 100% = 57 uM dopamine signal | potentiation, % (test concentration not listed) | 360,000 tested, 0.23% active | D(2) dopamine receptor (Homo sapiens), P14416; active = potentiation of 50% or more; inconclusive = 30% to 50%; inactive = 30% or less;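 also: compound concentration not given in the record; tested on top of an EC20 dose of dopamine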
Target sequence (P14416 whole entry, looked up): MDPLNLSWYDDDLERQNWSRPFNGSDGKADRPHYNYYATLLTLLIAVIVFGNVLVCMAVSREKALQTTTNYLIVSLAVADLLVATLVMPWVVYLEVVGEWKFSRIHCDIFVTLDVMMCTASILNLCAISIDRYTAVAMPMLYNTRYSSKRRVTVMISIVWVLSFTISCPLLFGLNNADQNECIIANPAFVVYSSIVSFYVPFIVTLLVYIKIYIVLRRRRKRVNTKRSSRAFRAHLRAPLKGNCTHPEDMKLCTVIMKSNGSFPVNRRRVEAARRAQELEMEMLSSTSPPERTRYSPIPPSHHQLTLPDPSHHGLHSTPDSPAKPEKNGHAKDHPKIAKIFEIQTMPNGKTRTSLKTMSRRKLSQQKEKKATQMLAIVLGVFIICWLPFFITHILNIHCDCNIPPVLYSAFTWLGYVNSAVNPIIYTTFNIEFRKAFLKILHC
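PathHunter D2 cells, attached overnight at 37 deg C, received compound in DMSO plus dopamine at EC20 (50 nM final) for 90 min at 37 deg C. Beta-arrestin recruitment was read as luminescence after 1 h with detection reagent at ambient temperature.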
gsp antagonist – qHTS for Antagonists of gsp, the Etiologic Mutation Responsible for Fibrous Dysplasia/McCune-Albright Syndrome: qHTS; gsp-mutant cells, cAMP HTRF, 30 min; control for the full effect not named in the record; Potency, µM (doses to about 76.9 µM), for inactives: at the highest dose activity change, negative = inhibition, usual class: inhibitors; 340,000 tested, 0.4% active; AID 624288, 2012; active = falling curve of any shape with a large fitted effect; inconclusive = falling curve, mostly with a smaller effect; inactive = flat or rising curve; cell line not stated here;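 also: intracellular cAMP measured with PDE inhibitor Ro 20-1724 present during compound exposure; potency is read from the fitted curve at half-maximal effect; % is scaled to controls: 0 for no effect and ±100 for the full control effect; nearly all actives have a fitted effect of over 65% in size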
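HTRF cAMP read-out (cAMP-d2 plus anti-cAMP antibody-K in lysis buffer, 30 min RT). Before lysis, cells are exposed to compounds with […] for 30 min at 37C in DPBS containing Ca/Mg, BSA and Tween 20.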
The depositor's hits bear a star; ? = inconclusive; / = not tested or not shown; [ ] = dose if it differs, or a comment.

Results follow in this order: Sfp inh	TRPV1 PAM	gsp ag	ClpP mod	Menin MLL FP FL	D2 potentiator	gsp antagonist
- CCOC(=O)c1cn2nc(Oc3cccc(C(F)(F)F)c3)ccc2n1
→ 6%	-9	-12%[15.4 µM]	/	-0.4	-5	3%
- Cc1ccc(C(=O)OCc2ccc3c(c2)OCO3)cc1S(=O)(=O)N1CCCCC1
→ 0%	-10	13%	-2.1%	0.7	-5	-1%
- Cc1cc(C)cc(NC(=O)CSc2nc3nc(C)cc(C)c3c(=O)[nH]2)c1
→ /	-4	-27%	-8.4%	/	2	-7%
- O=C(COC(=O)c1cc(=O)[nH]c2ccccc12)NCc1ccccc1Cl
→ /	/	4%	-5.9%	/	2	3%
- COc1ccc2[nH]cc(CCNS(=O)(=O)c3ccc(C)cc3)c2c1
→ 11%	-16	3%	-1.8%	4.4	-3	-10%
- COC(=O)CSC1=C(C#N)C(c2ccc(F)cc2)CC(=O)N1 (stereo not given)
→ -6%	/	?	3.0%	3.4	-2	8%
- Cc1nnc(N2C(=O)C(O)=C(C(=O)c3ccco3)C2c2cccc3ccccc23)s1 (stereo not given)
→ ?	-2	?	/	9.0	0	-11%
- CC(=O)Nc1ccc(C(O)(C(F)(F)F)C(F)(F)F)cc1
→ 5%	9	4%[15.4 µM]	/	0.6	0	15%
- COc1cccc(NC(=O)CSc2ccc(-c3ccco3)nn2)c1
→ 50µM*	11	-56%[inhibitor]	-6.4%	/	2	0%
- CCOc1ccc(S(=O)(=O)N(C)CCO)cc1-c1nc2c(C(C)(C)C)nn(C)c2c(=O)[nH]1
→ 8%	-13	-7%	1.4%	-2.3	-11	17%
- COC(=O)[C@H](C)NC(=O)Nc1ccc(OC(F)(F)F)cc1
→ 21%	-2	-34%[inhibitor]	-0.8%	2.1	-10	0%
- CC1(C)NC(=O)N(CCCCOc2ccc3ccccc3c2Cl)C1=O
→ -21%	-3	4%	-5.0%	0.0	5	?
- CCOC(=O)CSc1nc2ccccc2c(=O)n1C1CCCC1
→ -10%	-16	20%	0.1%	2.1	-17	-24%
- O=C1[C@@H]2CSCN2C(=O)CN1Cc1c(F)cccc1Cl
→ 15%	-10	-26%	/	0.3	3	8%
- Cc1cccc(NC(=O)c2ccc(S(=O)(=O)C(F)F)cc2)c1C
→ 25%	12	8%	-1.4%	3.9	-14	-12%

Among those listed so far, eight contain a halogen:
Results follow in this order: Sfp inh	TRPV1 PAM	gsp ag	ClpP mod	Menin MLL FP FL	D2 potentiator	gsp antagonist
- CCOC(=O)c1cn2nc(Oc3cccc(C(F)(F)F)c3)ccc2n1
→ 6%	-9	-12%[15.4 µM]	/	-0.4	-5	3%
- O=C(COC(=O)c1cc(=O)[nH]c2ccccc12)NCc1ccccc1Cl
→ /	/	4%	-5.9%	/	2	3%
- COC(=O)CSC1=C(C#N)C(c2ccc(F)cc2)CC(=O)N1 (stereo not given)
→ -6%	/	?	3.0%	3.4	-2	8%
- CC(=O)Nc1ccc(C(O)(C(F)(F)F)C(F)(F)F)cc1
→ 5%	9	4%[15.4 µM]	/	0.6	0	15%
- COC(=O)[C@H](C)NC(=O)Nc1ccc(OC(F)(F)F)cc1
→ 21%	-2	-34%[inhibitor]	-0.8%	2.1	-10	0%
- CC1(C)NC(=O)N(CCCCOc2ccc3ccccc3c2Cl)C1=O
→ -21%	-3	4%	-5.0%	0.0	5	?
- O=C1[C@@H]2CSCN2C(=O)CN1Cc1c(F)cccc1Cl
→ 15%	-10	-26%	/	0.3	3	8%
- Cc1cccc(NC(=O)c2ccc(S(=O)(=O)C(F)F)cc2)c1C
→ 25%	12	8%	-1.4%	3.9	-14	-12%

Quoted from the listing:
Result of `Cc1cc(C)cc(NC(=O)CSc2nc3nc(C)cc(C)c3c(=O)[nH]2)c1` in D2 potentiator: 2
Result of `Cc1ccc(C(=O)OCc2ccc3c(c2)OCO3)cc1S(=O)(=O)N1CCCCC1` in Sfp inh: 0%
Result of `COc1ccc2[nH]cc(CCNS(=O)(=O)c3ccc(C)cc3)c2c1` in D2 potentiator: -3
Result of `COC(=O)CSC1=C(C#N)C(c2ccc(F)cc2)CC(=O)N1` (stereo not given) in Menin MLL FP FL: 3.4

(more compounds)
Results follow in this order: Sfp inh	TRPV1 PAM	gsp ag	ClpP mod	Menin MLL FP FL	D2 potentiator	gsp antagonist
- CCOC(=O)CC(NS(=O)(=O)c1ccc2[nH]c(=O)sc2c1)c1ccc(C)cc1 (stereo not given)
→ 12%	-14	-35%[inhibitor][15.4 µM]	/	6.2	14	-7%
- COc1ccc(S(=O)(=O)c2nnn(-c3ccccc3Cl)c2N)cc1
→ 10%	-14	-50%[inhibitor]	-0.5%	-1.5	0	-10%
- O=C(Nc1ccccc1)NC1CCCCCCC1
→ /	/	-10%[15.4 µM]	/	/	-14	-11%
- Cc1cc(C)c(OCCN(C)Cc2ccccc2)c(Br)c1
→ -10%	-5	0%[15.4 µM]	-4.3%	2.1	-16	6%
- COc1ccc(O)c(/C=N/NS(=O)(=O)c2ccc(C)cc2)c1
→ 7%	9	-51%[inhibitor]	/	-5.5	3	7%
- CN(C)c1ccc(/C=N/NC(=O)c2sccc2-n2cccc2)cc1
→ -5%	3	-5%[15.4 µM]	/	1.7	-29	/
- CCCCOC(=O)C(C#N)c1nc2ccccc2nc1N1CCOCC1 (stereo not given)
→ ?	-16	18%	-0.8%	?	-12	-22%
- CN(CC(=O)Nc1ccc(S(N)(=O)=O)cc1)Cc1ccccc1F
→ 15%	-12	1%	/	0.4	-1	2%
- O=c1[nH][nH]c(C(F)(F)F)c1C=Nc1cccc(Cl)c1
→ 1%	-26	?	-0.1%	3.4	-11	-7%
- CN(NS(=O)(=O)c1ccc(F)cc1)c1ncc(C(F)(F)F)cc1Cl
→ 24%	1	-13%[15.4 µM]	/	1.7	-2	3%
- CC(=O)ON1C(C)(C)CC(OC(=O)c2ccccc2)CC1(C)C
→ 14%	-12	-17%	-0.4%	2.0	4	-7%
- O=C(N/N=C(\c1ccccc1)c1cccnc1)C(O)(c1ccccc1)c1ccccc1
→ 3%	/	-14%	145%	0.2	-2	?
- CCOC(=O)N1CCN(C(=S)NC(=O)c2cccc(OC)c2)CC1
→ /	/	-40%[15.4 µM]	-24%	/	-18	6%
- COC(=O)c1ccc(-c2ccc(F)cc2)nc1C
→ -11%	-2	-13%	1.5%	0.0	-16	4%
- COc1ccc(C(=O)C(c2ccccc2)N2CCOCC2)cc1 (stereo not given)
→ -19%	7	-37%[inhibitor]	-0.3%	0.3	-8	6%
- COCCN(C(=O)C1CCN(C(=O)c2ccccc2C)CC1)c1c(N)n(CC(C)C)c(=O)[nH]c1=O
→ /	-4	1%	-3.9%	/	-4	-10%
- CC(=O)NCCC(=O)N1CCc2c([nH]c3ccccc23)C1c1cccc(C)c1 (stereo not given)
→ 14%	2	5%[15.4 µM]	/	-9.0	-8	/
- O=C(O)c1cccc2c1C(=O)c1cc([N+](=O)[O-])ccc1-2
→ /	/	?	-1.6%	/	3	-9%

Single records, as listed above.
CC(=O)ON1C(C)(C)CC(OC(=O)c2ccccc2)CC1(C)C is entered as Sfp inh: 14%; TRPV1 PAM: -12; gsp ag: -17%; ClpP mod: -0.4%; Menin MLL FP FL: 2.0; D2 potentiator: 4; gsp antagonist: -7%
Cc1cc(C)c(OCCN(C)Cc2ccccc2)c(Br)c1 is entered as Sfp inh: -10%; TRPV1 PAM: -5; gsp ag: 0%[15.4 µM]; ClpP mod: -4.3%; Menin MLL FP FL: 2.1; D2 potentiator: -16; gsp antagonist: 6%
